Screening data as filed in PubChem.
Sa ugtP lethal: kills S. aureus RN4220 lacking UgtP | growth inhibition, % (test concentration not listed) | AID 1259309 | S. aureus RN4220 ugtP deletion, OD600 growth, 16 h; some inactives read as strong as hits | 330,000 compounds, 0.54% hits;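 active means z-score under -3 and OD600 up to 0.15 on both plates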;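 further: plate controls were untreated wells for no effect and antibiotic for full effect; wells of about 80 µL received 100 nL stock; the first replicate is given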
Mtb hypoxia inh: inhibitors of hypoxia-regulated fluorescent reporter in Mycobacterium tuberculosis; M. tuberculosis hypoxia-regulated fluorescent reporter, fluorescence; 300,000 compounds, 0.1% hits; fluorescence inhibition, % (no concentration beside the values);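 active means 35 to 45% if threefold the growth effect, above 45% if 1.5-fold the growth effect; inactive means the rest, general growth blockers included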;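 further: wells of about 50 µL received 100 nL stock; 0% = vehicle wells and 100% = reference inhibitor wells; whole bacteria with a GFP reporter of the hypoxia response; strong numbers were not always called active; many hits fall short of the cut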
BJeLR viability: kills HRASV12-expressing BJeLR cells. 300,000 compounds, 0.17% hits. inhibition, % (concentration not given with the values). BJeLR (HRASV12) viability, CellTiter-Glo ATP luminescence, 48 h; reference of the scale not given here;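 active means replicate mean above 50%; inconclusive means above 50% but judged a plate artefact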;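 further: 50 nL library stock added to about 25 µL; numbers are from one replicate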
RN4220 kill: S. aureus RN4220 growth inhibition | OD600, 16 h | inhibition, % (test concentration not listed) | 330,000 compounds, 0.33% hits | AID 1259311;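 active means z-score of -3 or lower and OD600 up to 0.18 on both plates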;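 further: plate controls were untreated cells for no effect and reference antibiotic for full effect; stock transfer was 100 nL into about 80 µL; one replicate is shown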
PrP 5UTR inh: inhibition of PrP 5' UTR reporter expression; 340,000 compounds, 0.35% hits; cell-based PrP 5' UTR mRNA reporter, plate reader; inhibition, % (no concentration beside the values);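 active means every replicate at 50% or more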;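 further: 0 = median of the neutral control wells; tested in H4 reporter cells; numbers are from one replicate; inactives centre near -14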
Bead autofluor: compound fluorescence in toxin protease inhibitor counterscreen. compound autofluorescence counterscreen, microsphere flow cytometry; active compounds read high. fluorescence intensity (test concentration not listed). 360,000 compounds, 3.1% hits;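 active means at least 3 SD above the mean of all compounds, about 16000 in these data; inconclusive means too few beads counted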;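 further: 100 nL of 1 mM stock went into each well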
Mtb hypoxia inh growth: also measured in Mtb hypoxia inh; calls as there; growth inhibition, %; measured here: M. tuberculosis growth (absorbance);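 0% = vehicle and 100% = reference antibiotic; read after six days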
* = called active by the depositor; ? = inconclusive; . = not tested or not shown. Compounds as they come; about 4.1% have a hit in one of these screens.

SMILES | Sa ugtP lethal | Mtb hypoxia inh | Mtb hypoxia inh growth | BJeLR viability | RN4220 kill | PrP 5UTR inh | Bead autofluor
C[N+]1(C)CCOC(O)(c2ccc(-c3ccc(C4(O)C[N+](C)(C)CCO4)cc3)cc2)C1 (stereo not given) | -6.4 | 4.6 | 10.9 | -3.9 | 2.7 | -14.1 | 5786
COc1cccc(N(CC(=O)NCc2ccco2)C(=O)CCC(=O)Nc2nccs2)c1 | 19.0 | -0.8 | 10.3 | -4.2 | 1.6 | -3.3 | 4201
COc1ccc(C=NNC(=O)CC(=O)NCc2cccnc2)cc1 | -4.9 | 1.6 | -0.4 | . | -11.7 | . | .
CC(C#N)On1c(SC(C)C#N)nc2ccccc2c1=O (stereo not given) | 4.2 | 2.3 | 0.9 | -5.6 | 0.8 | -2.1 | 25088*
CCOC(=O)c1c(N=CN(C)C)sc(C=O)c1-c1ccccc1 | -6.8 | 3.9 | 9.6 | . | 4.1 | . | .
CC(C)(C)c1cc(NC(=O)c2cccc(S(=O)(=O)N3CCOCC3)c2)no1 | -4.8 | 6.3 | 8.8 | 4.8 | 0.3 | 1.6 | 2389
O=C(Nc1cccc2ncccc12)c1ccco1 | 1.1 | 6.3 | -1.3 | -15.3 | 3.3 | -32.1 | 4193
CN(C)C(=O)COn1c(SCC(=O)N(C)C)nc2ccccc2c1=O | -0.2 | 9.0 | 10.0 | 8.5 | 9.0 | -45.5 | 20262*
Cc1ccc(C(C[N+](=O)[O-])c2c(C)[nH]n(-c3ccccc3)c2=O)cc1 (stereo not given) | 1.7 | 7.9 | 10.6 | -6.1 | 14.1 | -3.0 | 10482
Cc1cc(NS(=O)(=O)c2ccc(NC(=O)COc3c(C)cc(Br)cc3C)cc2)no1 | 8.8 | -5.8 | 6.1 | 7.4 | 21.1 | -18.4 | 4956
CCOc1ccccc1NC(=O)CN1CCC(NC(=O)c2ccccc2C)CC1 | 8.2 | -0.9 | 8.9 | 3.3 | 4.8 | -17.7 | 4543
Cc1nc2ncnn2c(C)c1CCC(=O)O | 4.9 | 10.0 | -8.9 | -6.5 | 3.6 | -25.4 | 4120
CC(=O)N(c1ccc(Cl)cc1)c1nc(C)cc(C)c1C#N | 4.0 | 0.7 | 5.4 | -1.8 | 1.9 | -15.0 | 4808
COc1ccc(C2CC(c3cccc(Br)c3)=NN2c2ccc(S(N)(=O)=O)cc2)cc1 (stereo not given) | -28.1 | -1.8 | 2.9 | . | -9.3 | -3.5 | 3944
Cc1ccc(S(=O)(=O)NCC(=O)N(CC(=O)NC(C)(C)C)Cc2ccc3c(c2)OCO3)cc1 | 2.1 | 16.3 | 8.1 | -9.2 | 0.5 | -13.8 | 5776
COc1ccc(NC(=O)Cc2c[nH]c3ccccc23)cc1S(=O)(=O)N1CCCCC1 | -5.1 | 4.7 | 12.3 | -16.4 | 5.5 | 1.4 | 10190
Nc1ncnc2nc(SCCOc3ccc(Cl)cc3)[nH]c12 | . | . | . | 9.0 | . | -26.8 | 2161
O=C(N/N=C/c1cccc2cccnc12)c1ccccc1O | . | . | . | 19.1 | . | -10.5 | 4665
CN(C)C(=O)CCc1ccc2c3c([nH]c2c1)[C@]1(C)[C@@H](C(=O)N2CCOCC2)C[C@H](CC(=O)NCCc2ccccn2)C(=O)N1CC3 | -0.7 | -1.9 | 2.0 | . | 3.2 | -9.4 | 3549
CCCCC(C(=O)NC1CCCC1)N(Cc1ccco1)C(=O)Cn1nnc(-c2ccc(F)cc2)n1 (stereo not given) | 2.3 | . | . | -3.0 | -7.1 | -6.9 | 3529
O=C(Cn1cc(C(F)(F)F)ccc1=O)N/N=C/c1cccc(Cl)c1Cl | . | . | . | 5.4 | . | -9.4 | 2489
CC(C)CCN(CC(=O)NC(C)(C)C)C(=O)C(=O)Nc1ccc2c(c1)OCCO2 | 13.2 | 3.5 | 8.4 | -9.9 | 4.8 | -7.0 | 4335
Cc1ccc2cccc(S(=O)(=O)N3CCN(c4cccc(Cl)c4)CC3)c2n1 | -20.2 | 5.4 | 6.0 | -0.5 | 0.8 | -14.5 | 11773
COc1ccc(C=NNC(=O)CSCC(=O)Nc2ccccc2)cc1OC | 9.8 | 9.7 | 8.8 | . | 3.8 | . | .
COc1ccc(C=NNC(=O)c2cc(-c3ccccc3)nc3ccccc23)c(C(=O)O)c1OC | -6.6 | -8.8 | -0.6 | . | 6.1 | . | .

Brought forward from above: 2 entries; new compounds follow.
SMILES | Sa ugtP lethal | Mtb hypoxia inh | Mtb hypoxia inh growth | BJeLR viability | RN4220 kill | PrP 5UTR inh | Bead autofluor
COc1ccc(C=NNC(=O)CSCC(=O)Nc2ccccc2)cc1OC | 9.8 | 9.7 | 8.8 | . | 3.8 | . | .
COc1ccc(C=NNC(=O)c2cc(-c3ccccc3)nc3ccccc23)c(C(=O)O)c1OC | -6.6 | -8.8 | -0.6 | . | 6.1 | . | .
COc1ccc(/C=C2/S/C(=N/S(=O)(=O)Cc3ccccc3)NC2=O)cc1OC | 3.2 | 1.9 | 0.7 | 3.3 | 5.3 | -3.7 | 3640
N#Cc1c(N2CCCC2)ccc(Br)c1Cl | 10.5 | -5.0 | 5.9 | -3.5 | 12.1 | -11.8 | 4066
Cc1nn2c3ccccc3n(Cc3ccccc3)c2nc1=O | 9.2 | . | . | 8.5 | -3.6 | -13.5 | 3856
CC(C)Cc1nc2sc3c(c2c(=O)n1N)CC(C(C)C)OC3 (stereo not given) | -0.6 | 13.7 | 12.2 | 18.0 | 5.0 | 0.0 | 4015
O=C(Cn1cnc2c(oc3ccccc32)c1=O)N1CCN(c2ccccc2)CC1 | 10.5 | 13.1 | 6.9 | 1.6 | 3.4 | -38.2 | 6182
CCOC(=O)CC1c2cc(F)ccc2S(=O)(=O)N1Cc1ccc(OC)cc1 (stereo not given) | 10.2 | 10.8 | 11.2 | . | 5.3 | . | .
COc1ccc(C)cc1S(=O)(=O)NC1CCCCCC1 | 11.1 | 5.1 | -3.9 | -1.7 | 4.4 | -11.5 | 4899
Cc1ccc(C)c(S(=O)(=O)N2CCCOC2CNC(=O)C(=O)NCc2cccs2)c1 (stereo not given) | -2.1 | -0.5 | 2.4 | -5.2 | 1.9 | -14.0 | 5668
CCc1nnc(NC(=O)c2ccc(F)c(S(=O)(=O)N3CCCCC3)c2)s1 | 7.7 | 0.4 | -4.9 | 6.1 | 12.0 | -6.2 | 4269
Cc1cc(C(=O)N2CCN(S(=O)(=O)c3ccc(F)c(Cl)c3)CC2)c(C)o1 | -2.4 | 22.8 | 7.5 | . | 4.2 | -11.4 | 3841
CC(C)Sc1nnc([C@@H]2CCCN2C(=O)OC(C)(C)C)o1 | 0.6 | . | . | -6.0 | -5.6 | -14.8 | 2398
CC(=O)N1CCN(c2ccc(NC(=O)c3cccc(C)c3)cc2)CC1 | 8.3 | -3.1 | -4.9 | -4.2 | 6.1 | -16.4 | ?
CCOC(=O)CSC1=C(C#N)C(c2ccccc2C)C2=C(CCCC2=O)N1 (stereo not given) | 2.4 | . | . | 6.1 | 1.9 | -12.8 | 5078
CCc1noc(C)c1C(=O)N(C)CC(=O)Nc1ccc(Br)cc1C | 0.5 | -10.4 | -4.4 | 10.6 | 3.7 | -8.7 | 6676
CCOc1ccc(/C=N/NC(=O)c2csc(C)c2C)c(OCC)c1 | . | . | . | -10.1 | . | -0.8 | 7972
Cc1cccc(C)c1N=Cc1c(O)n(-c2nccs2)c(=O)c2ccccc12 | -16.5 | 5.6 | 11.4 | 5.3 | 4.5 | -11.5 | 1950
CC(C)n1nc(C(=O)Oc2cc(Cl)ccc2Cl)c2ccccc2c1=O | 12.4 | 7.0 | -2.6 | 0.1 | 3.9 | -23.0 | 2353
O=C(OCCN=C1NS(=O)(=O)c2ccccc21)C1CC(=O)N(c2ccc(Cl)cc2)C1 (stereo not given) | 6.3 | 11.5 | 0.2 | 7.8 | 3.1 | -28.4 | 2479
Cc1oc(-c2ccccc2F)nc1CS(=O)(=O)CC(=O)NCCCN1CCc2ccccc2C1 | 8.9 | . | . | -0.5 | -0.1 | -23.4 | 5804
Cc1nc2ccc(NC(=O)C(F)(F)F)cc2o1 | -8.8 | -2.2 | 10.9 | -5.7 | 6.9 | -69.4 | 21726*
COc1ccccc1-c1cc(C(F)(F)F)nc(N2CCCCC2)n1 | 20.2 | 5.5 | 0.9 | -12.8 | 2.2 | -25.4 | 10259
O=C1c2ccccc2C(=O)N1CCc1nc2ccccc2c(=O)n1CCCn1ccnc1 | -3.6 | . | . | 6.4 | -0.3 | -17.9 | 2729
CN(C)CCCN(C(=O)c1ccc(S(=O)(=O)N2CCCCCC2)cc1)c1nc2c(F)cc(F)cc2s1 | -0.7 | 1.1 | 7.9 | 9.0 | -0.9 | 3.5 | ?
CC(C)(C)c1cc(-c2nc(N)nc(N)n2)cc(C(C)(C)C)c1 | 70.3 | -13.3 | 8.8 | -2.8 | -0.4 | -18.5 | 2051
O=C(CNS(=O)(=O)c1ccc(Br)s1)N1CCC(N2CCCCC2)CC1 | 1.2 | . | . | 13.2 | 2.5 | 15.9 | 2833

Other structures
SMILES | Sa ugtP lethal | Mtb hypoxia inh | Mtb hypoxia inh growth | BJeLR viability | RN4220 kill | PrP 5UTR inh | Bead autofluor
O=c1cc(NCc2ccccc2)c2ccccc2o1 | 1.1 | 2.1 | 12.4 | -3.0 | 5.0 | -4.0 | 3699
CCOC(=O)c1sc(=S)n(C)c1NC(=O)c1ccc(C(C)(C)C)cc1 | 7.2 | 12.6 | 17.4 | 7.8 | 1.8 | -8.3 | 3160
COc1ccc(/C(O)=C2/C(=O)C(=O)N(Cc3ccco3)C2c2cccs2)cc1 (stereo not given) | -1.6 | 1.9 | -7.2 | 0.7 | 2.6 | -7.7 | 9482
CCOc1ccc(S(=O)(=O)N2CCN=C2c2ccccc2)c(C)c1C | 3.9 | 3.8 | -1.1 | 1.2 | 3.9 | -16.4 | 6201
CCC(=NCCCO)c1c(O)n(-c2ccc(OC)cc2)c(=O)[nH]c1=O | 6.7 | -1.7 | 10.4 | -8.7 | 16.4 | -35.5 | 3283
COc1ccc(-c2cc3c(=O)n(CC(=O)NCCCN4CCC(N5CCCCC5)CC4)nc(C)n3n2)cc1 | . | . | . | -7.2 | . | -12.2 | 6850
O=S(=O)(c1ccccc1)N1CCN(C(=S)NCCc2ccccc2)CC1 | -3.0 | -3.8 | 2.4 | 0.0 | 3.4 | -12.4 | 6006
CC1=C(C(=O)OC(C)C)[C@@H](c2ccc(C)o2)NC(=O)N1 | -5.2 | -9.2 | -6.4 | 1.8 | -3.3 | -2.5 | 2278
O=C1CC(NC23CC4CC(CC(C4)C2)C3)C(=O)N1c1ccc2c(c1)OCO2 (stereo not given) | -0.3 | 5.1 | 4.6 | 2.9 | 3.2 | -21.2 | 8928
N=c1ccccn1CC(O)COc1ccccc1 (stereo not given) | -6.7 | . | . | -3.9 | 2.1 | -7.8 | 2617
CCCCNc1nc(CC)c2c(c1C#N)CCCC2 | 81.3* | 6.3 | 10.7 | 0.6 | -0.3 | -17.5 | 2976
O=C(NCCc1c[nH]c2ccccc12)OCCSS(=O)(=O)O | -4.8 | 3.1 | 9.8 | 0.1 | 11.5 | -19.6 | 3117
COc1ccc(/C=C2/N=C3CCCCCN3C2=O)cc1 | -1.1 | 2.1 | 0.2 | 6.5 | 6.2 | -8.3 | 3350
O=C1Nc2cc(C(=O)NCC3CCCO3)ccc2S/C1=C/c1ccccc1F (stereo not given) | -8.2 | 9.2 | 1.9 | -1.6 | 7.0 | 11.2 | 4801
O=C1c2cccc3cccc(c23)C(=O)N1Nc1ccccc1 | -0.7 | -7.2 | -3.4 | 8.6 | 5.1 | -20.0 | 4193
Clc1cccc(-c2nc(-c3ccc(-c4nn[nH]n4)cc3)no2)c1 | 10.8 | 0.6 | 11.4 | . | 19.3 | -15.6 | 4349
CCOCCN1CCN(c2c(C)c(C)nc3cc(-c4cc(OC)cc(OC)c4)nn23)CC1 | -3.0 | -0.3 | 12.2 | -7.4 | -0.7 | -5.2 | 5453

Looked up by structure from the entries so far, 2 records:
SMILES | Sa ugtP lethal | Mtb hypoxia inh | Mtb hypoxia inh growth | BJeLR viability | RN4220 kill | PrP 5UTR inh | Bead autofluor
CCOc1ccc(S(=O)(=O)N2CCN=C2c2ccccc2)c(C)c1C | 3.9 | 3.8 | -1.1 | 1.2 | 3.9 | -16.4 | 6201
CCOC(=O)CC1c2cc(F)ccc2S(=O)(=O)N1Cc1ccc(OC)cc1 (stereo not given) | 10.2 | 10.8 | 11.2 | . | 5.3 | . | .
